# Vaccinia stage = blocks a specific stage of Vaccinia orthopoxvirus infection, primary screen, cell-based, single point | AID 1053133, 2014 | actives 0.01% (n = 89,000) | Vaccinia-infected cells, mCherry/Venus stage reporter fluorescence; hits give low values; some inactives read as strong as hits | activity change (mCherry), % (no concentration beside the values);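 active = mCherry past -33% and 40 or more points under the early reporter, replicates agreeing; inconclusive = past -33% without that gap or agreement; tested in A549 cells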;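 also: scaled between vehicle wells and reference inhibitor wells; 23 nL library stock went into each well; one replicate is shown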
# Vaccinia stage Venus = further read-out of Vaccinia stage, marked with its call; activity change (Venus), %; measured here: Venus reporter, other viral stage;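 negative = less Venus signal; first of two replicates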
# Active calls of the source: *; ? = inconclusive; nt = not tested or not shown. This is a subset (hit frequency here may not be typical).
# Sample of the layout (five entries):
SMILES,Vaccinia stage,Vaccinia stage Venus
CC(C)NC(=O)N(C)C[C@H]1Oc2cc(C3=CCCCC3)ccc2S(=O)(=O)N([C@@H](C)CO)C[C@@H]1C,-28,-29
C[C@@H]1CN([C@@H](C)CO)C(=O)Cc2cc(NC(=O)Nc3ccc4c(c3)OCO4)ccc2O[C@@H]1CN(C)CC1CC1,2,-2
CCCNC(=O)N(C)C[C@H]1Oc2ncc(-c3cccc(C#N)c3)cc2C(=O)N([C@@H](C)CO)C[C@@H]1C,12,1
Cc1noc(C)c1NC(=O)N(C)C[C@H]1Oc2c(NS(C)(=O)=O)cccc2C(=O)N([C@H](C)CO)C[C@@H]1C,4,3
N#Cc1cccc(-c2ccc([C@H]3[C@@H](CO)N4CCCCN(C(=O)Nc5ccccc5)C[C@@H]34)cc2)c1,-16,-26

# This part in full, from the start:
SMILES,Vaccinia stage,Vaccinia stage Venus
CC(C)NC(=O)N(C)C[C@H]1Oc2cc(C3=CCCCC3)ccc2S(=O)(=O)N([C@@H](C)CO)C[C@@H]1C,-28,-29
C[C@@H]1CN([C@@H](C)CO)C(=O)Cc2cc(NC(=O)Nc3ccc4c(c3)OCO4)ccc2O[C@@H]1CN(C)CC1CC1,2,-2
CCCNC(=O)N(C)C[C@H]1Oc2ncc(-c3cccc(C#N)c3)cc2C(=O)N([C@@H](C)CO)C[C@@H]1C,12,1
Cc1noc(C)c1NC(=O)N(C)C[C@H]1Oc2c(NS(C)(=O)=O)cccc2C(=O)N([C@H](C)CO)C[C@@H]1C,4,3
N#Cc1cccc(-c2ccc([C@H]3[C@@H](CO)N4CCCCN(C(=O)Nc5ccccc5)C[C@@H]34)cc2)c1,-16,-26
C[C@H](O)C#Cc1cnc2c(c1)C(=O)N([C@@H](C)CO)C[C@@H](C)[C@@H](CN(C)C(=O)c1ccc(F)cc1)O2,3,2
C[C@H]1CN([C@@H](C)CO)C(=O)c2cc(C#CC3(O)CCCC3)cnc2O[C@@H]1CN(C)C(=O)C1CCC1,30,25
CNC[C@@H]1Oc2ncc(C3=CCCCC3)cc2C(=O)N([C@@H](C)CO)C[C@@H]1C,-17,-10
CC(=O)N(C)C[C@H]1Oc2ncc(C#C[C@H](C)O)cc2C(=O)N([C@@H](C)CO)C[C@H]1C,35,18
C[C@@H]1CN([C@@H](C)CO)C(=O)Cc2cc(NC(=O)Cc3cn(C)c4ccccc34)ccc2O[C@@H]1CN(C)C(=O)Nc1ccc2c(c1)OCO2,6,12
CC(=O)NC[C@H]1[C@@H](c2ccc(C#CC(C)(C)O)cc2)[C@@H](CO)N1C(=O)CC1CC1,3,7
C[C@@H]1CN([C@@H](C)CO)C(=O)c2cc(NC(=O)NC3CCCCC3)ccc2O[C@@H](C)CCCCO[C@@H]1CN(C)S(=O)(=O)c1ccc(Cl)cc1,12,12
C[C@@H]1CN([C@@H](C)CO)C(=O)c2cc(NC(=O)CCCCCC(=O)Nc3ccccc3N)ccc2O[C@H]1CN(C)S(=O)(=O)c1ccc(Cl)cc1,12,13
C[C@@H]1CN([C@@H](C)CO)C(=O)c2cc(C#CCN(C)C)cnc2O[C@H]1CN(C)Cc1ccccc1F,17,2
C[C@H]1CN([C@@H](C)CO)C(=O)c2cc(C3=CCCC3)cnc2O[C@H]1CN(C)C(=O)c1ccncc1,22,19
C[C@@H]1CN([C@H](C)CO)C(=O)c2cc(NS(=O)(=O)c3cn(C)cn3)ccc2O[C@H]1CN(C)CC1CCCCC1,9,16
C[C@H]1CN([C@@H](C)CO)S(=O)(=O)c2ccc(C3=CCCCC3)cc2O[C@H]1CN(C)C(=O)c1ccc(F)cc1,-26,-14
C[C@H](CO)N1C[C@H](C)[C@H](CN(C)CC2CC2)Oc2cc(C#CC3CC3)ccc2S1(=O)=O,-5,-11
Cc1noc(C)c1S(=O)(=O)N(C)C[C@@H]1OCc2ccccc2-c2c(n(C)c3ccccc23)C(=O)N([C@@H](C)CO)C[C@H]1C,-31,-25
C[C@@H]1CN([C@H](C)CO)C(=O)c2cc(NC(=O)Nc3ccc(F)cc3)ccc2O[C@H]1CN(C)Cc1ccc(C(=O)O)cc1,2,3
C[C@@H](NC(=O)C[C@H]1C[C@H]2c3cc(NC(=O)C4CCC4)ccc3O[C@H]2[C@@H](CO)O1)c1ccccc1,6,-1
CO[C@@H]1CN(C)C(=O)c2ccc(NC(=O)c3ccc4c(c3)OCO4)cc2OC[C@H](C)N(CCC(F)(F)F)C[C@@H]1C,-21,-18
CN1c2ccc(-c3ccccc3F)cc2[C@@H]2[C@@H](CCN2S(=O)(=O)c2ccccc2F)[C@@H]1CO,-17,-17
O=C(N[C@H]1CC[C@@H](CCNC(=O)C2CCCCC2)O[C@@H]1CO)c1ccncc1,2,6
COc1ccc2c3c([nH]c2c1)[C@H](CO)N(C(=O)Nc1ccc(F)cc1)CC31CN(Cc2cc(-c3ccccc3)on2)C1,-30,-17
C[C@@H]1CCCCO[C@@H](CN(C)Cc2ccccc2)[C@H](C)CN([C@H](C)CO)C(=O)c2cc(NS(=O)(=O)c3ccc(Cl)cc3)ccc2O1,?,nt
CCNC(=O)[C@@H]1[C@@H](CO)[C@@H]2Cn3c(ccc(/C=C/c4ccccc4)c3=O)[C@H]1N2C(C)=O,4,1
C[C@@H]1CN([C@@H](C)CO)C(=O)c2cccc(NS(=O)(=O)c3cn(C)cn3)c2O[C@@H]1CN(C)S(=O)(=O)c1cccs1,12,5
CCCNC(=O)N(C)C[C@@H]1Oc2ncc(-c3ccncc3)cc2C(=O)N([C@H](C)CO)C[C@H]1C,10,5
C[C@H]1CN([C@@H](C)CO)C(=O)c2cccc(NC(=O)C3CC3)c2O[C@H]1CN(C)C(=O)Nc1ccc(C(F)(F)F)cc1,8,11
COC(=O)N(C)C[C@H]1OCc2ccccc2-c2c(n(C)c3ccccc23)C(=O)N([C@@H](C)CO)C[C@H]1C,-2,-5
COc1ccc(S(=O)(=O)Nc2ccc3c(c2)C(=O)N([C@H](C)CO)C[C@@H](C)[C@H](CN(C)S(=O)(=O)c2ccc(C)cc2)O3)cc1,-5,-4
O=C(CN1CCOCC1)N[C@H]1CC[C@H](CCn2cc(C3CC3)nn2)O[C@H]1CO,-5,-3
CN1C(=O)c2cc(NC(=O)c3cccs3)ccc2OC[C@H]2O[C@@H](CC(=O)NCCN3CCCCC3)CC[C@@H]21,-4,-13
O=C(c1ccc(F)cc1)N1CC(=O)N2[C@H](C1)[C@H](c1ccc(C#CCC3CCCC3)cc1)[C@@H]2CO,?,nt
O=C(NCC[C@@H]1CC[C@@H](NC(=O)c2ccccc2F)[C@@H](CO)O1)c1ccc2c(c1)OCO2,13,16
C[C@H](CO)N1C[C@H](C)[C@H](CN(C)C(=O)c2ccccc2)OCCCC[C@H](C)Oc2ccc(NC(=O)CCCCCC(=O)Nc3ccccc3N)cc2C1=O,4,-5
CC(C)NC(=O)N[C@H]1CC[C@@H](CCNS(=O)(=O)Cc2ccccc2)O[C@H]1CO,4,5
C=C[C@@H](C)[C@@H](OC(=O)Nc1ccc(OC)cc1)c1ccc(OCCO)cc1,2,0
C[C@H]1CN([C@@H](C)CO)C(=O)CCCn2nncc2CO[C@H]1CN(C)C(=O)Nc1cccc(C(F)(F)F)c1,5,3
COc1cccc(C#Cc2cnc3c(c2)C(=O)N([C@@H](C)CO)C[C@H](C)[C@H](CN(C)C(=O)C2CCCCC2)O3)c1,?,nt
CC(C)NC(=O)N[C@@H]1CC[C@H](CC(=O)NCCN2CCCC2)O[C@@H]1CO,11,8
O=C(N[C@@H]1CC[C@H](CC(=O)N2CCC(Cc3ccccc3)CC2)O[C@@H]1CO)c1cnccn1,15,12
C/C=C/c1ccc2c(c1)O[C@@H](CN(C)C(=O)c1ccccn1)[C@@H](C)CN([C@@H](C)CO)S2(=O)=O,36,20
CC(C)NC(=O)Nc1ccc2c(c1)C(=O)N(C)[C@H]1CC[C@@H](CC(=O)Nc3ccccc3)O[C@H]1CO2,8,3
C[C@H]1CN([C@@H](C)CO)C(=O)c2cc(NC(=O)CCC(F)(F)F)ccc2O[C@@H]1CN(C)Cc1ccncc1,7,8
CN1c2ccc(-c3ccc(F)cc3)cc2[C@@H]2[C@@H](CCN2C(=O)C2CCOCC2)[C@@H]1CO,-15,-7
COc1ccc(CN2C[C@@H](C)[C@H](OC)CN(C)C(=O)c3cc(NC(=O)c4nc5ccccc5s4)ccc3OC[C@H]2C)cc1,3,-1

# Part of the list above, field by field.
> O=C(N[C@@H]1CC[C@H](CC(=O)N2CCC(Cc3ccccc3)CC2)O[C@@H]1CO)c1cnccn1
  Vaccinia stage: 15; Vaccinia stage Venus: 12

> C[C@H]1CN([C@@H](C)CO)C(=O)CCCn2nncc2CO[C@H]1CN(C)C(=O)Nc1cccc(C(F)(F)F)c1
  Vaccinia stage: 5; Vaccinia stage Venus: 3

> CC(C)NC(=O)Nc1ccc2c(c1)C(=O)N(C)[C@H]1CC[C@@H](CC(=O)Nc3ccccc3)O[C@H]1CO2
  Vaccinia stage: 8; Vaccinia stage Venus: 3

> COc1cccc(C#Cc2cnc3c(c2)C(=O)N([C@@H](C)CO)C[C@H](C)[C@H](CN(C)C(=O)C2CCCCC2)O3)c1
  Vaccinia stage: ?; Vaccinia stage Venus: nt

# Additional structures follow.
SMILES,Vaccinia stage,Vaccinia stage Venus
O=C(Nc1ccc2c(c1)[C@H]1C[C@@H](CC(=O)N3CCOCC3)O[C@H](CO)[C@H]1O2)NC1CCCCC1,3,10
C[C@@H]1CCCCO[C@@H](CN(C)CC2CC2)[C@H](C)CN([C@@H](C)CO)C(=O)c2cc(NS(=O)(=O)c3ccc(F)cc3)ccc2O1,3,-3
C[C@@H]1CN([C@@H](C)CO)C(=O)c2ccccc2-c2ccccc2CO[C@@H]1CN(C)C(=O)c1ccccc1,35,24
CN1[C@@H]2Cn3c(ccc(C4=CCCCC4)c3=O)[C@H]1[C@@H](C(=O)NCc1ccc(F)cc1)[C@@H]2CO,-11,-12
O=C(Cc1ccccn1)NCC[C@H]1CC[C@@H](NC(=O)Nc2ccccc2)[C@@H](CO)O1,4,1
C[C@@H]1CCCCO[C@@H](CN(C)C(=O)C2CCCCC2)[C@H](C)CN([C@@H](C)CO)C(=O)c2cc(N(C)C)ccc2O1,-33,-21
C[C@H](CO)N1C[C@H](C)[C@@H](CN(C)S(=O)(=O)c2cn(C)cn2)OCCCC[C@H](C)Oc2ccc(NS(=O)(=O)c3cn(C)cn3)cc2C1=O,12,2
COc1ccc(CN2C[C@H](C)[C@H](OC)CN(C)C(=O)c3cc(NC(C)=O)ccc3OC[C@@H]2C)cc1,-1,1
COc1cccc(-c2ccc3c(c2)O[C@@H](CN(C)Cc2cccnc2)[C@@H](C)CN([C@H](C)CO)S3(=O)=O)c1,-10,-3
O=C(NCC[C@@H]1CC[C@@H](NC(=O)C2CCCCC2)[C@@H](CO)O1)c1ccc(F)cc1,-4,0
C[C@H]1CN([C@@H](C)CO)S(=O)(=O)c2ccc(-c3ccncc3)cc2O[C@H]1CN(C)Cc1ccc(Oc2ccccc2)cc1,?,nt
O=C(NC1CCC1)[C@@H]1[C@@H](CO)[C@@H]2Cn3c(ccc(-c4ccccc4F)c3=O)[C@H]1N2C(=O)CC1CC1,20,13
O=C(C1CC1)N1C[C@@H]2[C@H](c3ccccc31)[C@H](CO)N2C(=O)c1ccccc1F,2,8
C[C@@H]1CCCCO[C@@H](CN(C)S(=O)(=O)c2cccs2)[C@@H](C)CN([C@H](C)CO)C(=O)c2cc(N(C)C)ccc2O1,10,-1
O=C(C[C@H]1CC[C@H]2[C@@H](COC[C@@H](O)CN2CCc2ccccc2)O1)NCc1ccc(Oc2ccccc2)cc1,?,nt
CNC[C@@H]1Oc2ccc(NS(=O)(=O)c3cccs3)cc2CC(=O)N([C@H](C)CO)C[C@H]1C,-15,0
O=C(C[C@H]1C=C[C@@H](NC(=O)C2CCOCC2)[C@@H](CO)O1)NCc1ccncc1,5,4
OC[C@@H]1[C@@H](c2ccc(/C=C/c3ccccc3)cc2)[C@H]2CN(Cc3cccnc3)CCCCN12,?,nt
Cc1noc(C)c1S(=O)(=O)Nc1ccc2c(c1)C(=O)N([C@@H](C)CO)C[C@@H](C)[C@@H](CN(C)Cc1ccc(-c3ccccc3)cc1)O2,?,nt
C[C@H](CO)N1C[C@H](C)[C@@H](CN(C)S(=O)(=O)c2ccc(F)cc2)Oc2ccc(NC(=O)CCC(F)(F)F)cc2C1=O,1,5
C/C=C/c1ccc([C@H]2[C@@H](CO)N(C(=O)CC)[C@H]2CN(C)Cc2cncnc2)cc1,-3,11
Cc1ccc(S(=O)(=O)Nc2cccc3c2O[C@@H](CN(C)S(=O)(=O)c2ccc(Cl)cc2)[C@@H](C)CN([C@H](C)CO)C3=O)cc1,-16,2
C[C@H](CO)N1C[C@H](C)[C@H](CN(C)CC2CCCCC2)Oc2ccc(NS(=O)(=O)c3cn(C)cn3)cc2CC1=O,5,1
C[C@@H]1CCCCO[C@@H](CN(C)Cc2ccc3c(c2)OCO3)[C@@H](C)CN([C@@H](C)CO)C(=O)c2cc(NC(=O)CCC(F)(F)F)ccc2O1,-15,-11
C[C@H]1CN([C@@H](C)CO)C(=O)CCCn2cc(nn2)CO[C@H]1CN(C)C(=O)Nc1cccc2ccccc12,15,13
COC(=O)[C@@H]1[C@@H](CO)[C@@H]2Cn3c(ccc(/C=C/c4ccccc4)c3=O)[C@@H]2N1C(=O)C1CCCC1,-7,1
CCCC(=O)Nc1ccc2c(c1)C(=O)N(C)[C@H]1CC[C@@H](CC(=O)NCCCN(C)C)O[C@@H]1CO2,6,6
CN1c2ccc(-c3ccccc3F)cc2[C@@H]2[C@@H](CCN2S(=O)(=O)c2ccccc2F)[C@H]1CO,-20,-10
COCC(=O)N1CC(=O)N2[C@@H](CO)[C@H](c3ccc(-c4cccnc4)cc3)[C@@H]2C1,11,-1
C[C@H](CO)N1C[C@H](C)[C@@H](CN(C)S(C)(=O)=O)Oc2c(NC(=O)Nc3cccc4ccccc34)cccc2C1=O,4,11

# Source: PubChem
